Bioassay records deposited in PubChem by Center for Chemical Genomics, University of Michigan.
CDC25B-CDK2 inh = human CDC25B-CDK2/CyclinA binding inhibition; P30305+P24941; HTRF CDC25B-CDK2/CyclinA binding, anti-His/anti-Flag; active compounds read high; z-score (test concentration not listed); 94,000 compounds, 0.72% hits;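 further: score is relative to mean and SD of negative controls; strong numbers were not always called active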
TAR Tat displ = HIV-1 TAR-Tat binding disruption | HIV-1 TAR RNA, Tat peptide displacement FRET; active compounds read high | z-score (no concentration beside the values) | 100,000 compounds, 0.6% hits | AID 1259389;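 further: score is relative to mean and SD of negative controls; some compounds called inactive have numbers as strong as hits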
* = called active by the depositor; x = no result given.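 How the source made its calls: active means z-score from 3 up in half or more of its runs; inactive means the rest.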 Random draw from the library; about 0.89% have a hit in one of these screens.

SMILES	CDC25B-CDK2 inh	TAR Tat displ
O=C(CCCN1C(=O)c2cccc3cccc(c23)C1=O)Nc1cccc2ccccc12	-3	x
Cc1ccc(CNC(=O)C2CC3CCCN3C23C(=O)Nc2ccccc23)cc1 (stereo unspecified)	x	0.07
CC(=O)N1CC(C)Sc2ccc(S(=O)(=O)Nc3ccccc3Br)cc21 (stereo unspecified)	x	0.85
Cc1ccc(Oc2ccc(C(F)(F)F)cc2[N+](=O)[O-])c([N+](=O)[O-])n1	-1.3	x
CCC(CC)C(=O)Nc1ccc(OCc2cc(=O)n3nc(CC(C)C)sc3n2)cc1	-0.91	0.62
Cc1ccc(NC(=O)c2cccc(C(=O)Nc3ccc(C)cc3C)c2)c(C)c1	-2.4	x
CCOc1cc(C2C(C#N)=C(C)NC3=C2C(=O)CC(c2ccccc2)C3)ccc1OC(C)=O (stereo unspecified)	-0.32	0.13
CN(Cc1ccco1)C(=O)C1CCC(Cn2c(=O)[nH]c3ccsc3c2=O)CC1 (stereo unspecified)	x	0.04
CC(C)(CO)NCc1cc(Br)ccc1OCc1ccccc1	0.31	-0.65
CCC(C)n1c(=O)c2sccc2n2c(CCCC(=O)N3CCc4ccccc4C3)nnc12 (stereo unspecified)	x	-0.89
Cc1cc(NC(=O)c2nc(-n3cnnc3)ccc2Br)no1	x	1.6
N#C/C(=C\N1CCc2ccccc21)S(=O)(=O)c1ccc(C(F)(F)F)cn1	-2.2	x
CC(C)CCNC(=O)C(C)n1ncn2cccc2c1=O (stereo unspecified)	-1.4	1.1
CCOC(=O)c1c(NC(=O)c2cc3ccccc3c(=O)o2)sc2c1CCC(CC)C2 (stereo unspecified)	0.25	17
Cc1c2c(=O)n(-c3nc4ccccc4s3)nc-2cc(O)n1CCc1c[nH]c2ccccc12	2	9.2*
CN1C2=C(C(=O)CCC2)C(c2ccc(O)cc2)C2=C1CCCC2=O	-0.95	-0.42
Cc1ccc(N2C(=O)C3C(C2=O)C2(C4OCCO4)C=CC3(C)O2)cc1 (stereo unspecified)	-1	x
O=C(O)CSc1nnc(-c2ccncc2)o1	-0.99	0.26
O=C(Cn1c(=O)c2cccn2c2ccccc21)NCc1ccccn1	x	2
COc1ccc(Nc2nc3ccccc3n3cnnc23)cc1Cl	0.83	-1.3
Cc1ccc2cc(-c3noc(-c4ccccc4F)n3)c(=O)[nH]c2c1	-1.2	1.6
O=C(CCCc1c[nH]c2ccccc12)Nc1ccc(Cl)cc1F	x	0.98
Cn1c(=O)[nH]c(=O)c2[nH]c(N3CCCCC3)nc21	-0.62	1.4
O=C(Nc1cccc(Cl)c1)N1Cc2ccccc2Oc2ncccc21	-0.72	0.49
CCOC(=O)c1c(NC(C)=O)sc2c1CCN(C)C2	-1.8	-2.1
CCOC(=O)c1sc(SCc2cccc(Cl)c2)c(S(=O)(=O)C(C)C)c1-n1cccc1	-2.5	x
Cc1nn(-c2nc3ccc(Br)cc3s2)c2c1C(c1ccc(Cl)cc1)CC(=O)N2 (stereo unspecified)	x	1.6
COc1ccc(-c2nn3c(=O)c(NC(=O)c4ccc(F)cc4)cnc3o2)cc1	x	2.5
CCCc1nnc(NC(=O)c2cc(-c3ccc4c(c3)OCCO4)on2)s1	-2.9	1
COc1ccc(S(=O)(=O)[C@H]2CS(=O)(=O)C[C@@H]2NCCC(C)C)cc1	-0.58	1.4
Cc1ccc(OCCCCCc2c(C)n[nH]c2C)cc1	-1.5	x
CCC(C)NC(=O)CCC(=O)N1CC(C)Oc2ccc(Cl)cc21 (stereo unspecified)	-1.2	-0.09
CC1CCC(NC(=O)C2(C)Cn3c(ccc3-c3ccco3)C(=O)N2Cc2ccco2)CC1 (stereo unspecified)	x	0.01
O=C(Nc1noc2c1COc1ccccc1-2)NC1CCCCC1	x	1.4
O=Cc1ccc(-c2ccc(-n3cnnn3)cc2)o1	-2.2	x
COc1ccc(Oc2coc3cc(OCCCc4ccccc4)ccc3c2=O)cc1	-0.42	-1.4
O=C1O[C@@H]2C[C@H]3C[C@@H]2[C@@H]1[C@H]3C(=O)N1CCN(c2cccc(Cl)c2)CC1	-0.88	0.04
Cc1cc(C)c(OCC(=O)N(Cc2ccc(C)o2)C2CCS(=O)(=O)C2)c(C)c1 (stereo unspecified)	-0.9	1.3
CN(Cc1cnn(-c2ccccc2)c1)S(=O)(=O)c1ccc2c(c1)CCCC(=O)N2	x	0.42
Cc1oc(C(C)(C)C)cc1-c1cc(NS(=O)(=O)c2ccc(Cl)cc2)n[nH]1	-1.2	x
CC1=C(c2ccc(C)cc2)S(=O)(=O)N=C1N1CCOCC1	-2.7	1.8
O=C(CCC(=O)N1Cc2cccn2-c2ccccc21)NC1CCCC1	x	0.85
CCc1cccc(C)c1NS(=O)(=O)c1ccc(-c2cnc(C3CC3)o2)cc1	x	0.87
CCCCCCCCCc1c(O)c2ccccc2[nH]c1=O	-1.3	x
Cc1ccsc1C1N(c2cccc(Cl)c2)C(=O)C2CCCN21 (stereo unspecified)	-0.56	-1.3
O=C(C1CCCN(c2ncnc3c2nc2n3CCCCC2)C1)N1CCc2ccccc2C1 (stereo unspecified)	x	0.15
CCCCCCCc1c(COC)[nH][nH]c1=O	-0.86	x
O=C(c1cccs1)N1CCC2(CC1)OCCO2	-1.3	x
Cc1csc2nc(COC(=O)CCc3ccccc3)cc(=O)n12	x	1.2
CC(C)CCNc1nc2c(c(=O)[nH]c(=O)n2C)n1C(C)C	-2.1	0.83
Cc1nnc(SCC(=O)Nc2cccc(C(F)(F)F)c2)n1-c1ccc2c(c1)OCCO2	-2.1	x
CN1C(=O)c2ccccc2Sc2ccc(NC(=O)N3CCN(c4ccccc4)CC3)cc21	1.5	1.2
CCCc1nc2sc3c(NCCCO)ncnc3c2c2c1CCCC2	1.8	0.14
CC(C)C(=O)OCc1cc(=O)n2c3c(sc2n1)CCCC3	x	1.5
O=C(O)CCC(=O)N1N=C(c2ccc(Br)cc2)CC1c1ccccc1F (stereo unspecified)	1.3	x
O=[N+]([O-])c1ccc(N2CCN(c3cccc(Cl)c3)CC2)s1	x	1.8
COC(=O)c1sccc1NS(=O)(=O)c1ccsc1C(=O)OC	-3	x
CC(Sc1ccsc1[N+](=O)[O-])C(=O)O (stereo unspecified)	x	-0.1
COc1ccc(-c2noc(CSc3nnc(-c4ccncc4)n3-c3ccccc3)n2)cc1	-0.29	1.8
O=C1CCC(c2ccc(Br)cc2)=NN1Cc1ccccc1	-0.68	-1.2
The results go on.
SMILES	CDC25B-CDK2 inh	TAR Tat displ
Nc1ccc(Cl)c(Nc2cc(=O)n(-c3c(Cl)cc(Cl)cc3Cl)[nH]2)c1	-2.2	x
O=C(CC1(O)C(=O)N(CCc2ccccc2)c2ccc(Cl)cc21)c1ccccc1O (stereo unspecified)	0.2	0.44
COc1ccc(NC(=O)Nc2nccs2)cc1	0.17	1.5
Cc1ccc(-c2n[nH]c3c2C(c2cccnc2)N(c2ccc(Cl)cc2)C3=O)cc1 (stereo unspecified)	-1.1	x
O=C1CC(c2cc(F)ccc2F)c2c(nc(SCc3ccccc3F)[nH]c2=O)N1 (stereo unspecified)	0.24	1.2
COc1cccc(OCCCSc2nc(-c3ccc(C)cc3)nc3cc(=O)[nH]n23)c1	x	-0.79
CCOc1ccc(S(=O)(=O)Nc2cc(N3CCCS3(=O)=O)ccc2C)cc1	x	0.23
CCCS(=O)(=O)N1CCN(C2CCN(C(=O)OCC)CC2)CC1	-1.7	2.6
Cc1ncc(-c2ccc(C)c(S(=O)(=O)N3CCN(C4CCCCC4)CC3)c2)o1	x	0.87
CCCC(=O)Nc1ccc2c(c1)sc(=O)n2C	x	0.76
CC(=O)N1N=C(c2c(-c3ccccc3)c3cc(Cl)ccc3[nH]c2=O)CC1c1ccco1 (stereo unspecified)	0.39	5
COc1ccc(Nc2cc(N3CCN(C)CC3)c3noc4c3c2C(=O)c2ccccc2-4)cc1	7.5*	0.88
CC(C)=CCC/C(C)=C/CO	x	2.2
Cc1ccc(S(=O)(=O)N2CC3(C)CN(S(=O)(=O)c4ccc(C)cc4)CC(C)(C2)C3)cc1	0.05	0.99
CC(C)(C)c1ccc(-c2cc3ccccn3c2)cc1	-1.6	x
COc1ccc2c(c1)CC(NC(=O)NCc1ccco1)CO2 (stereo unspecified)	x	1.2
CCS(=O)(=O)N1CCN(c2cc(N3CCCC3)nc(C)n2)CC1	-1.4	-0.65
CSc1ncc(C(=O)Nc2cccc(F)c2)c(C(F)(F)F)n1	x	0.46
O=c1cc(-c2ccccc2)nc2scc(-c3ccc([N+](=O)[O-])cc3)n12	-2.4	x
COc1ccc(OC)c(NC(=O)N2CCCC2c2ccco2)c1 (stereo unspecified)	-2.2	0.61
CSc1cccc(NC(=O)N2CCC3(CC2)Nc2ccccc2-n2cccc23)c1	x	0.45
O=C(CCC(=O)N1Cc2cccn2-c2ccccc21)NCCc1c[nH]c2ccc(Cl)cc12	x	1.6
CCCCn1c(N2CCNCC2)nc2c1c(=O)[nH]c(=O)n2C	-1.5	x
Cn1ccc2cc(S(=O)(=O)N3CCC(C(=O)NCCN4CCOCC4)CC3)ccc21	x	0.9

Of the compounds above, 4 contain a nitro group on carbon:
SMILES	CDC25B-CDK2 inh	TAR Tat displ
Cc1ccc(Oc2ccc(C(F)(F)F)cc2[N+](=O)[O-])c([N+](=O)[O-])n1	-1.3	x
O=[N+]([O-])c1ccc(N2CCN(c3cccc(Cl)c3)CC2)s1	x	1.8
CC(Sc1ccsc1[N+](=O)[O-])C(=O)O (stereo unspecified)	x	-0.1
O=c1cc(-c2ccccc2)nc2scc(-c3ccc([N+](=O)[O-])cc3)n12	-2.4	x

Following part:
SMILES	CDC25B-CDK2 inh	TAR Tat displ
CNC(=O)[C@H]1O[C@@H](n2cnc3c(NCc4ccc(N)cc4)ncnc32)C(O)[C@H]1O (stereo partly specified)	-0.15	x
CCc1ccc(S(=O)(=O)c2cn(C)c3ccc(C)cc3c2=O)cc1	-0.31	-0.34
Cc1c(CNC(=O)c2cnn3c2NC(c2ccc(Br)cc2)CC3C(F)(F)F)cnn1C (stereo unspecified)	-0.72	1.1
O=C(NCc1n[nH]c(=O)c2ccccc12)C(=O)NCC1CCCO1 (stereo unspecified)	x	2.7
O=C(Cn1cc2c(n1)CCCC2)Nc1c(F)c(F)c(F)c(F)c1F	-2.6	x
NC[C@H]1O[C@H](O[C@H]2C(O[C@@H]3O[C@H](CO)[C@@H](O)[C@H]3O)[C@@H](O)[C@H](N)C[C@@H]2N)[C@H](N)[C@@H](O)[C@@H]1O (stereo partly specified)	x	2
O=C(NC1CCOCC1)N1CCN(c2ccccn2)CC1	1	-0.59
COc1cccc(C2C3=C(Nc4c2c(=O)[nH]c(=O)n4C)c2ccccc2C3=O)c1 (stereo unspecified)	-0.76	-8.4
O=S(=O)(Nc1cccc(-c2ccc(N3CCCCC3)nn2)c1)c1cc(F)ccc1F	x	0.38
Cc1cc2c(NC(=O)Nc3ccc(C(C)(C)C)cc3)cccc2nn1	-2	x
Cc1cc(O)c2c(c1O)C(=O)c1c(O)cc(C)c(O)c1C2=O	x	0.53
O=C1CCCC2=C1C(c1ccncc1)c1c(nc(SCc3ccccc3Cl)[nH]c1=O)N2 (stereo unspecified)	-0.66	x

Among those listed so far, these contain an aryl thioether with sulfur outside any ring.
SMILES	CDC25B-CDK2 inh	TAR Tat displ
O=C(O)CSc1nnc(-c2ccncc2)o1	-0.99	0.26
CCOC(=O)c1sc(SCc2cccc(Cl)c2)c(S(=O)(=O)C(C)C)c1-n1cccc1	-2.5	x
Cc1nnc(SCC(=O)Nc2cccc(C(F)(F)F)c2)n1-c1ccc2c(c1)OCCO2	-2.1	x
CC(Sc1ccsc1[N+](=O)[O-])C(=O)O (stereo unspecified)	x	-0.1
COc1ccc(-c2noc(CSc3nnc(-c4ccncc4)n3-c3ccccc3)n2)cc1	-0.29	1.8
O=C1CC(c2cc(F)ccc2F)c2c(nc(SCc3ccccc3F)[nH]c2=O)N1 (stereo unspecified)	0.24	1.2
COc1cccc(OCCCSc2nc(-c3ccc(C)cc3)nc3cc(=O)[nH]n23)c1	x	-0.79
CSc1ncc(C(=O)Nc2cccc(F)c2)c(C(F)(F)F)n1	x	0.46
CSc1cccc(NC(=O)N2CCC3(CC2)Nc2ccccc2-n2cccc23)c1	x	0.45
O=C1CCCC2=C1C(c1ccncc1)c1c(nc(SCc3ccccc3Cl)[nH]c1=O)N2 (stereo unspecified)	-0.66	x

Further results:
SMILES	CDC25B-CDK2 inh	TAR Tat displ
CCOC(=O)c1sc2nc(C)n(CC(=O)NCC3CCCO3)c(=O)c2c1C (stereo unspecified)	2.3	x
CCOC(=O)c1c(N2C(=O)CCC2=O)sc(C)c1-c1ccccc1	-1.2	x
CC(C)(C)C1CCc2c(sc3nc(CCC(=O)N4CCN(c5ccc(F)cc5)CC4)[nH]c(=O)c23)C1 (stereo unspecified)	x	0.92
CCN(c1ccccc1)S(=O)(=O)c1ccc2c(c1)NC(=O)CS2	x	1.8
CCCN(CCC)C(=O)c1cc(S(=O)(=O)N2CCCCC2)c[nH]1	x	2.3
O=C1CC(C(=O)Nc2ccc(F)c(Cl)c2)N=C(N2CCOCC2)N1 (stereo unspecified)	-0.65	1.3
COc1cc(OC)cc(N2C(=O)c3nccnc3C2=O)c1	-0.03	-0.3
CCCn1c2ccccc2c2cnn(CC(=O)N3CCCC3)c(=O)c21	x	1.9
O=C(Nc1ccccc1N1CCOCC1)c1ccsc1	-0.75	x
Cc1c(C(=O)O)nnn1-c1ccc(Br)cc1	-0.79	2.1
O=c1c(Nc2ccc(Cl)cc2)c(-c2ccc3c(c2)CCCC3)c1=O	x	0.36
CC(=O)N1CCc2c(sc3c2c(=O)n(-c2ccccc2)c(=O)n3CC(=O)NCC2CCCO2)C1 (stereo unspecified)	-1	0.51
CNC(=O)C1CCC(Cn2c(=O)c3sccc3n(CC(=O)Nc3ccc(Cl)cc3)c2=O)CC1 (stereo unspecified)	x	1.6
Cc1noc(NS(=O)(=O)c2ccc(NC(=O)c3ccc(Br)o3)cc2)c1C	-1	x
COC(=O)c1c(SC)nc2ccccc2c1OCc1ccccc1F	x	0.66
